# Mtb H37Rv = M. tuberculosis H37Rv growth inhibitors, H37Rv strain (AID 1626); M. tuberculosis H37Rv growth inhibition; higher % means a stronger effect; inhibition, % at 10 µM; hits with a dose series show IC50 in µM; 220,000 compounds, 0.95% hits;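 active = confirmed in a dose series; inconclusive = inhibition above 80% but not taken into the dose series; inactive = below 80% or under 30% at every dose of the series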;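 also: bacteria incubated seven days before Alamar blue readout; 0% = bacteria only wells and 100% = bacteria with antibiotic wells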
# Arbovirus inh = antivirals against arbovirus infection, primary screen, cell-based, full library, 10K replicate subset. AID 1251, 2008. inhibition, % at 10 µM. arbovirus infection cell-based antiviral screen. 200,000 compounds, 0.37% hits;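 active = inhibition from about 30%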;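 also: bluetongue infection of BSR cells; cell survival read as ATP light after 72 h; 0% = infected wells without compound and 100% = uninfected wells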
# RecA intein inh = Mtb RecA intein splicing inhibitors, primary screen, biochemical, fluorescence, HTS; Protein RecA (Mycobacterium tuberculosis (strain ATCC 25618 / H37Rv)), P9WHJ3; inhibition, %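 (about 9 µM by stock and volumes)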; 290,000 compounds, 0.75% hits; cell-free RecA intein splicing; AID 2221, 2009; in the data active = inhibition above about 30%; inconclusive = no clear call, values can overlap the other calls;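 also: 0% = vehicle wells and 100% = reference inhibitor control wells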
# Target sequence (P9WHJ3 whole entry, looked up): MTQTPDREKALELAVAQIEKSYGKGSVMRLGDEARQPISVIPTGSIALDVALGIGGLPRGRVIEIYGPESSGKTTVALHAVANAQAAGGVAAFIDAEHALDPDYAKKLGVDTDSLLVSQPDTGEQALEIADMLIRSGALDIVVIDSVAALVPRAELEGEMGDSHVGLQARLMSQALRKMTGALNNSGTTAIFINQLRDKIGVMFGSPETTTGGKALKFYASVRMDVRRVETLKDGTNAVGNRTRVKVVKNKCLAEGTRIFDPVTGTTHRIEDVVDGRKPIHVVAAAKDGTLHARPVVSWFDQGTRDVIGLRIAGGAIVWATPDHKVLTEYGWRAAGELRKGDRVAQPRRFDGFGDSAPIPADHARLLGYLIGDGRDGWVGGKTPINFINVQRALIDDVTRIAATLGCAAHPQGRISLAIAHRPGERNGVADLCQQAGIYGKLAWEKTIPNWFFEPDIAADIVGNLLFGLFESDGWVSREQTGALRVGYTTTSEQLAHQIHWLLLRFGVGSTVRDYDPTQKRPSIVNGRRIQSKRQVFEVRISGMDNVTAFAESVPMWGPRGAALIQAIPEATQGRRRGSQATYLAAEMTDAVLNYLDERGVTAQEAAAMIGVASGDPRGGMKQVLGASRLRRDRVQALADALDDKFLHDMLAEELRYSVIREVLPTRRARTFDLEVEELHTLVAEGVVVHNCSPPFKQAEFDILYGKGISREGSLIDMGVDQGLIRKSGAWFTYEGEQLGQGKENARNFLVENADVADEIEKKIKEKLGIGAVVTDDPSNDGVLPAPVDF
# Mtb bLac sens = beta-lactam sensitization of Mtb H37Rv, H37Rv. M. tuberculosis H37Rv growth with meropenem, percent inhibition; hits of this screen are not shown here. 330,000 compounds, 0.27% hits. inhibition, % at 25 µM;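 active = about 74% or more and at least 40 points above the plate without the antibiotic, then above 30% in a dose series; inconclusive = first-round hits that could not be retested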;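 also: growth measured after seven days incubation then overnight dye step; 0% = bacteria only wells and 100% = bacteria with antibiotic; twin plates without the antibiotic show which effects depend on it; some results filed as inactive read as strong as hits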
# YopH PTP inh = YopH tyrosine phosphatase inhibitors, primary screen, biochemical, fluorescence Ex485/Em525; inhibition, %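 (about 10 µM by stock and volumes)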; 140,000 compounds, 0.16% hits;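 active = inhibition of 50% or more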;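 also: controls were vehicle for no effect and minimum signal wells for full effect; inactives centre near -20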
# Arbovirus inh repeat = further read-out of Arbovirus inh, marked with its call; inhibition, %; measured here: 10K subset replicate screen; many hits read low in the repeat;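 first of two repeat runs on a subset; 0% = infected and 100% = uninfected wells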
# Starred values were filed as active, the others as inactive; ? = inconclusive; nt = not tested or not shown.
# Start of the data: the first 4 compounds, to show the layout:
SMILES,Mtb H37Rv,Arbovirus inh,RecA intein inh,Mtb bLac sens,YopH PTP inh,others
CCOc1ccc(C(=O)N2CCCC2)cc1,-3.2%,6.2,-0.4,-5.6,-19.4,
CC(C)(C)NC(=O)N1CCN(c2nc(-c3ccccc3)ns2)CC1,0.8%,nt,-1.0,4.8,nt,
Cc1cc(C)c2cc3c(N)c(C(=O)N4CCc5ccccc5C4)sc3nc2c1,1.8%,4.2,-1.1,18.4,-2.4,
CCc1nc(SCC(=O)Nc2nc3c(s2)CCCC3)c2ccccc2n1,-10.9%,-0.3,3.1,-10.0,-7.5,

# The list itself, from the start:
SMILES,Mtb H37Rv,Arbovirus inh,RecA intein inh,Mtb bLac sens,YopH PTP inh,others
CCOc1ccc(C(=O)N2CCCC2)cc1,-3.2%,6.2,-0.4,-5.6,-19.4,
CC(C)(C)NC(=O)N1CCN(c2nc(-c3ccccc3)ns2)CC1,0.8%,nt,-1.0,4.8,nt,
Cc1cc(C)c2cc3c(N)c(C(=O)N4CCc5ccccc5C4)sc3nc2c1,1.8%,4.2,-1.1,18.4,-2.4,
CCc1nc(SCC(=O)Nc2nc3c(s2)CCCC3)c2ccccc2n1,-10.9%,-0.3,3.1,-10.0,-7.5,
Cc1c(C(=O)N2CCOCC2)oc2ccc(Br)cc12,nt,nt,2.4,-15.2,nt,
CN1CC(c2ccccn2)C2(SC(=S)N(Cc3ccccc3)C2=O)C12C(=O)Nc1ccccc12 (stereo not given),5.2%,-14.1,18.4,70.3,-19.4,
Cc1cc(C)c(C)c(S(=O)(=O)Nc2cccc(-n3cnnn3)c2)c1C,nt,nt,-2.3,0.9,nt,
Cc1nn(C(C)C(=O)NC(C)CCc2ccccc2)c(=O)c2cc3occc3n12 (stereo not given),nt,nt,2.3,-9.4,nt,
COc1ccccc1NC(=O)COc1ccc(Br)cc1CNCCCN1CCOCC1,-1.5%,-13.4,-1.8,-1.1,nt,
CCOC(=O)c1sc(=NC(=O)c2ccc(F)cc2)n(C)c1C,nt,nt,-3.1,-7.7,nt,
Cc1cc([N+](=O)[O-])c2[nH]c(C(=O)N/N=C/c3ccccc3C(=O)O)c(-c3ccccc3)c2c1,nt,-13.3,6.5,nt,8.4,
N#Cc1nc(-c2ccccc2)oc1NCc1ccco1,14.8%,8.1,0.9,0.1,-51.4,
COc1ccc(-n2c(C)cc(C(=O)COC(=O)Cn3cnc4ccccc43)c2C)cc1,0.5%,8.9,7.3,1.4,-26.6,
CC(C)c1ccc(/C=C/C(=O)NC2=NCCS2)cc1,nt,18.7,5.8,69.1,-30.5,
CCOc1ccc(NC(=O)CCC(=O)c2ccc(-c3ccccc3)cc2)cc1,?,-4.2,-5.1,88.2,-13.7,
Cc1ccc(CNC(=O)CC(C)S(=O)(=O)c2cc3c(cc2C)NC(=O)CO3)cc1 (stereo not given),nt,nt,4.1,-4.9,nt,
O=C(c1cc(-c2ccc(Cl)cc2)n(-c2ccc(Cl)c(Cl)c2)n1)N1CCOCC1,-1.3%,-16.2,2.4,8.3,-1.3,
Cc1cc(C)c(NC(=O)COC(=O)C2CCC2)c(Cl)c1,nt,nt,1.6,-4.3,nt,
CCN1CCCC1CN(Cc1cc2ccc(C)cc2[nH]c1=O)C(=S)Nc1ccc(OC)cc1 (stereo not given),-6.0%,7.1,6.9,-9.5,-42.3,
O=C(O)CCS(=O)(=O)c1ccccc1Cl,-3.3%,-1.5,-4.1,-6.0,nt,
CC(=O)C[C@H]1c2ccccc2S(=O)(=O)N1C1CCCC1,-1.9%,nt,-1.8,-6.4,nt,
COc1ccc(CCNC(=O)c2cc(COc3c(C)cccc3C)on2)c(OC)c1,nt,nt,-5.3,4.1,nt,
CCOc1ncccc1C(=O)NNC(=O)c1ccccc1-n1cccc1,nt,nt,-0.1,32.6,nt,
O=C(Nc1ccc(Cl)cn1)c1ccc2[nH]c(=O)c(=O)[nH]c2c1,nt,nt,2.0,-10.7,nt,
COc1ccc(C)cc1C(=O)CCC(=O)NCCc1ccc(S(N)(=O)=O)cc1,nt,nt,-0.8,-0.9,nt,
COc1ccc(N2CCN(C(=O)COc3ccc(Cl)cc3Cl)CC2)cc1,-0.1%,8.0,-0.2,-2.6,4.1,
O=P(c1ccccc1)(c1ccccc1)c1nc(-c2ccccc2)oc1NCc1ccccc1,7.2%,-0.2,0.1,-3.5,nt,
Cc1cccc(CCNS(=O)(=O)c2ccc3c(c2)n(C)c(=O)c(=O)n3C)c1,-1.3%,8.7,-2.3,0.0,-45.9,
Cn1c(=O)c(C(=O)CCl)c(N)n(Cc2ccccc2)c1=O,-9.7%,0.7,-3.0,0.7,-7.8,
COc1ccc(CNC(=O)c2ccc(SC)cc2OC)cc1,10.7%,4.4,-2.8,4.4,-23.9,
Cn1c(SCC(=O)Nc2cccc(C(=O)O)c2)nnc1-c1cc2cc(Br)ccc2o1,-5.8%,6.6,-0.4,8.4,nt,
CN(C)CCOC(=O)c1ccc2[nH]c3c(c2c1)CSCC3,-0.5%,nt,2.5,-8.0,nt,
CC(=O)N(CN1C(=O)CCC1=O)c1cccc(Cl)c1,-4.5%,-0.8,-1.8,3.4,-30.9,
CN1CCN(Cc2ccc(OCc3ccccc3)cc2)CC1,2.0%,-11.6,-0.6,-4.2,-27.6,Arbovirus inh repeat=-8.9
CC1CC(C)(C)NC(=S)N1CC(=O)NCc1ccc(F)cc1 (stereo not given),-0.1%,10.9,-0.7,-6.8,nt,
COC(=O)CNC(=O)CSc1nnc2cc(C)c3ccccc3n12,1.6%,4.1,0.0,-6.5,nt,
CC(=O)Nc1ccc(N(C)C)cc1[N+](=O)[O-],4.2%,1.0,1.2,-11.3,-35.9,
CCN(CC)CCCn1c2c(c(SCC(=O)Nc3ccc(F)c(F)c3)nc1=O)CCC2,nt,nt,2.0,2.9,nt,
COc1cccc(OCC(=O)Nc2ccccc2-c2ccccc2)c1,-1.4%,-15.1,20.1,10.0,nt,
COc1cc2[nH]c(=S)n(CCCN3CCOCC3)c(=O)c2cc1OC,-2.0%,10.9,0.3,0.2,11.8,
COc1ccccc1N1CCN(Cc2cccc(OC)c2OC)CC1,0.4%,2.7,nt,4.5,-33.5,
Cc1ccc(CCCOC(=O)C[N+]2(C)CCCCC2)cc1,-3.6%,-5.8,-1.3,-2.4,nt,
Cc1ccc(N2NC(=O)/C(=C/C=C/c3ccco3)C2=O)cc1C,38.3%,-4.9,-0.9,82.8,nt,
O=c1sc(Nc2ccccc2)nc2ccccc12,-1.6%,2.3,-0.8,-2.7,nt,
O=C(O)c1ccc(NC(=O)C2C3CCC(C3)C2C(=O)O)cc1 (stereo not given),0.2%,3.7,-3.6,6.5,-44.4,Arbovirus inh repeat=5.7
C[C@]1(C(=O)NCCN2CCOCC2)C=C[C@@H](Cc2ccccc2)N1C(=O)c1ccccc1,-13.3%,11.4,-0.3,-0.4,-35.3,
CCOc1ccccc1Oc1nc(-c2ccccc2O)nc2ccccc12,nt,nt,3.1,-1.2,nt,
COc1cc2c(cc1OC)C1C/C(=N\O)C(CC(C)C)CN1CC2 (stereo not given),0.8%,-1.3,-1.7,-19.0,-3.0,
COc1ccc(OCC(O)CNC(=O)c2ccc(C)cc2)cc1 (stereo not given),-4.9%,nt,0.3,-3.8,nt,
COc1cccc(NCc2cc(=O)oc3cc(C)c(C(C)C)cc23)c1,nt,nt,7.7,2.4,nt,
COC(=O)c1cc(C(=O)Nc2nnc(CC(C)C)s2)cc([N+](=O)[O-])c1,-5.1%,-0.3,-3.3,-4.3,-22.9,
O=C(Nc1cccc(C(F)(F)F)c1)C(SCCO)c1ccccc1 (stereo not given),3.2%,14.7,1.8,-2.7,0.8,
COc1ccc(C(=O)NC(NC(=O)c2ccc(OC)c(OC)c2)c2ccccc2F)cc1OC,8.1%,-3.4,nt,-3.8,-33.2,
CN(CC(=O)Nc1ccc(Cl)cc1)C(=O)c1ccc(-n2cncn2)c([N+](=O)[O-])c1,nt,nt,-4.8,-0.1,nt,
CCCC(NS(=O)(=O)c1ccc(C)cc1)C(=O)O (stereo not given),-7.0%,2.2,-1.2,-5.9,-9.3,
COc1cc(C(=O)N2CCN(C(=O)COc3ccc4ccccc4c3)CC2)cc(OC)c1OC,-6.4%,-0.6,0.1,-0.2,-38.7,
O=C(O)c1ccc(OCc2cn3ccccc3n2)cc1,-6.8%,nt,-0.3,-5.7,nt,
COc1cc(/C=C/C(=O)O)cc(S(=O)(=O)Nc2cccc(SC)c2)c1OC,5.7%,-2.6,1.6,0.0,-40.8,
c1ccc(Cc2nc(-c3ccccn3)no2)cc1,1.5%,-9.0,1.9,-8.0,-36.0,
Cc1cc(S(=O)(=O)NCC(C)C)ccc1OCC(=O)NCc1ccco1,-3.3%,3.1,-4.5,-0.2,nt,
# Carrying on.
SMILES,Mtb H37Rv,Arbovirus inh,RecA intein inh,Mtb bLac sens,YopH PTP inh,others
COC(=O)CN1C(=O)C(O)(CC(=O)c2ccc(Cl)cc2)c2ccccc21 (stereo not given),-9.4%,-4.9,nt,0.9,-18.6,Arbovirus inh repeat=-3.4
Cc1cc(C)n(Cc2ccc(C(=O)NN)o2)n1,6.1%,nt,-2.2,-9.5,nt,
CCC1SC2=NCCN2C1(O)c1ccc(Cl)cc1 (stereo not given),5.0%,7.2,-3.6,10.4,-42.4,
CNc1nc(OCC#N)nc(N2CCCCC2)n1,-3.5%,6.4,0.2,-0.9,nt,
CCOc1ccc(-c2nnn(CC(=O)NCc3ccc4c(c3)OCO4)n2)cc1,-2.6%,-14.9,1.7,0.0,33.6,
Cc1ccc(/C(O)=C2/C(=O)C(=O)N(CCN3CCOCC3)C2c2cccs2)cc1 (stereo not given),nt,0.0,-0.4,-3.1,-36.5,
O=C(N/N=C/c1cccc([N+](=O)[O-])c1)c1cc2ccccc2o1,2.1%,-9.7,-0.4,10.5,-6.6,
Cc1ccc(C)c(NC(=O)C2CC(Cl)=CCC2C(=O)O)c1 (stereo not given),-7.0%,17.5,0.5,-2.7,16.6,
CCOC(=O)N1CCC(N2Cc3cccc(C(=O)Nc4ccccc4OC)c3C2=O)CC1,nt,nt,1.2,12.7,nt,
Cc1cc(NC(=O)CSc2nnc(-c3ccc(O)cc3)o2)no1,-6.9%,nt,2.6,39.6,nt,
CCN1C(=O)c2cccc3cccc1c23,6.7%,-5.0,-11.1,2.5,-49.7,
Cc1ccc2oc(C(=O)Nc3nnc(C)s3)c(C)c2c1,-11.4%,-10.1,-0.7,2.2,-16.1,
O=C(CSc1nnc(CN2CCOCC2)n1-c1ccc(Cl)cc1)Nc1cc(Cl)ccc1O,1.3%,-28.2,4.7,-6.5,-35.6,
O=C(CN1CCCC1)Nc1ccc(Br)cc1,2.8%,10.8,2.9,-1.4,nt,
Cc1nnc(SCC(=O)Nc2ccc(Cl)cn2)s1,3.0%,-2.2,0.8,3.9,-17.1,
S=C1NC(c2ccccc2)=CC(c2ccccc2)N1 (stereo not given),-2.0%,0.1,5.2,-12.9,nt,
CC(C)CNS(=O)(=O)c1ccc(CCC(=O)NC2CCCCC2)cc1,nt,nt,0.7,73.5,nt,
Cc1ccc(NC(=O)C(c2ccc(Cl)cc2Cl)N2CCCC2)cc1 (stereo not given),8.8%,29.8,14.5,5.1,-23.4,
Cc1ccc(NC(=O)C2CC(=O)OC23CCOC(C)(C)C3)cc1 (stereo not given),-3.5%,-0.2,-4.7,-3.8,-20.8,
COC(=O)COC(=O)c1ccc(O)cc1,0.0%,4.9,-5.5,-0.5,-30.2,Arbovirus inh repeat=1.9
Nc1nc(N2CCN(Cc3ccccc3)CC2)n[nH]1,5.0%,8.0,-4.3,-2.6,nt,
CC(=O)/C(=N/Nc1ccc(Br)cc1)Sc1cccc2cccnc12,4.6%,3.7,0.1,0.7,-22.4,
CCCCn1c(NCc2ccccn2)nc2ccccc21,10.6%,4.0,-1.7,20.2,-11.0,
CCN1CCN(c2ccc(S(=O)(=O)N3CCCCC3)cc2NC(=O)/C=C/c2ccc(OC)c(OC)c2)CC1,nt,nt,4.9,3.1,nt,
O=C(CN1CCC(n2cnc3cc(F)ccc32)CC1)Nc1ccccc1Br,3.4%,0.0,nt,99.0,nt,
COc1ccc(Cl)cc1NC(=O)c1cccc(NC(=O)CCC(=O)O)c1,1.5%,3.4,-3.2,-0.8,-30.6,
CC(=O)c1cnc2cc(-c3ccc(C)cc3)nn2c1C,-0.4%,1.3,2.2,9.4,11.7,
Cc1cc(C(=O)OCC(=O)N2CCOCC2)c2ccccc2n1,-6.3%,13.5,-4.6,-10.7,-43.3,

# High-throughput results deposited in PubChem by several laboratories.

# An excerpt. The share of hits here may be higher or lower than overall.
